B2AR ag = agonists of human beta-2 adrenergic receptor inducing internalization; P07550; Am2.2-beta2AR cells, FAP receptor internalization, flow cytometry; reference of the scale not given here; response, % (test concentration not listed); 340,000 compounds, 0.43% hits; AID 504454;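 active = response above a set limit, near 3 SD of response in nonfluorescent compounds, cut at about 42% in these data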;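 note: stock transfer was 100 nL into about 11 µL; a reference agonist was the positive control; negative values mostly stem from fluorescent compounds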
UCH37 inh = human UCH37 deubiquitinating enzyme inhibition | Q9Y5K5 | purified proteasome/UCH37, Ub-AMC cleavage fluorescence | inhibition, % (concentration not given with the values) | 330,000 compounds, 0.33% hits;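 active = mean of two replicates above 20%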;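 note: 0% = compound-free wells with enzyme and 100% = wells lacking proteasome; stock transfer was 100 nL into about 20 µL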
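Signal – fluorescence, ex 355 nm, em 460 nm · System – Proteasome-bound UCH37 · Input – 0.15 nM proteasome as dispensed · Timing – 30 min preincubation with enzyme, 25 min cleavage at room temperature · Read-out basis – percent inhibition of cleavage signal versus uninhibited and no-proteasome wells · Medium – Tris-HCl pH 7.4 with ATP-MgCl2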
HNF4A DNA FP = change in binding of human HNF4 alpha to DNA. HNF4a-FITC DNA binding, fluorescence polarization, 1 h. 360,000 compounds, 0.3% hits. activity change, % at 10 µM. P41235; in the data active = activity change above about 30%, passing the limit was not always enough;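 note: controls were the assay level and a saturating level of protein; the project sought stronger binding though the title names inhibitors; some compounds called inactive have numbers as strong as hits; positive values seem to mean higher polarization but the record does not say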
ALR inh = inhibitors of human sulfhydryl oxidase ALR; purified ALR, DTT oxidation, H2O2 HRP-luminol luminescence; 290,000 compounds, 3.8% hits; AID 485317; inhibition, % (test concentration not listed); P55789;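 active = mean and each replicate at 75% or more; inconclusive = only one of the two met; inactive = neither met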;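 note: stock transfer was 7.5 nL into about 7.5 µL; 0% = neutral wells and 100% = wells with inactivated enzyme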
LANA-H2B inh = blocks KSHV LANA binding to histone H2A/H2B; inhibition, % (no concentration beside the values); cell-free LANA-H2A/H2B peptide, fluorescence polarization; Q9QR71; AID 2629; 320,000 compounds, 0.6% hits; in the data active = inhibition mostly above about 10%, no sharp cut-off; inactive = mostly below about 6.7%;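 note: stock transfer was 7.5 nL into about 10 µL; 0% = median of vehicle wells and 100% = median of positive control wells; one replicate is shown; the record names a cut of 25% in any replicate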
Target sequence (Q9QR71 whole entry, looked up): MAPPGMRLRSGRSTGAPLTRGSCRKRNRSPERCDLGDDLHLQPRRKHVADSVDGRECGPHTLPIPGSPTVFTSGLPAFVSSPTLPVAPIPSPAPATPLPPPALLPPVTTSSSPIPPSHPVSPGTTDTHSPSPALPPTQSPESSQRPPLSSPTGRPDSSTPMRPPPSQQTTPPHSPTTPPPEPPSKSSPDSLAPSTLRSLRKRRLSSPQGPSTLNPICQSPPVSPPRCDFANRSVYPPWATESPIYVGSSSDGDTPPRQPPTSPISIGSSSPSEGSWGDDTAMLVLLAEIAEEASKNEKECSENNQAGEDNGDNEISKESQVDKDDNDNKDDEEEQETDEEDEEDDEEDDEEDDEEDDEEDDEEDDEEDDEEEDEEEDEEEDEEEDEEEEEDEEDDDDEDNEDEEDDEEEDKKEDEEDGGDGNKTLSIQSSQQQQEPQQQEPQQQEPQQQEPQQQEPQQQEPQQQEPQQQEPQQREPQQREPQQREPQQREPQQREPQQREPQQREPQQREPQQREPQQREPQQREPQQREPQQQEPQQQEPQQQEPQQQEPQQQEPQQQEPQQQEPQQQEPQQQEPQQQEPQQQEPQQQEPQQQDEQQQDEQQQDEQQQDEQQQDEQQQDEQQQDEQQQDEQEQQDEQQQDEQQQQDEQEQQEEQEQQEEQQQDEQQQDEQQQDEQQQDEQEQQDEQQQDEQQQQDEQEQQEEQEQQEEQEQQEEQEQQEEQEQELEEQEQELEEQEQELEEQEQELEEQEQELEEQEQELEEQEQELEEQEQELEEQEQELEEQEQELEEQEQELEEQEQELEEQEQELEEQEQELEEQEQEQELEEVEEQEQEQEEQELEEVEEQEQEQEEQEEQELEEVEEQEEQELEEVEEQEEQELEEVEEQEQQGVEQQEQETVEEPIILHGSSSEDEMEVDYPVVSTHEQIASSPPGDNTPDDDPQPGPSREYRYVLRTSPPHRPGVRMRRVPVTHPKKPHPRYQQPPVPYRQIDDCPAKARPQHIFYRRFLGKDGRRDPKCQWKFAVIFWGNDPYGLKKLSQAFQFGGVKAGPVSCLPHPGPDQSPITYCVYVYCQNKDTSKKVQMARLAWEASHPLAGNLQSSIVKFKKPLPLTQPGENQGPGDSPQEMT
E coli growth = inhibitors of Escherichia coli growth. OD600 absorbance (test concentration not listed). OD600, 23 h; hits give low values. 330,000 compounds, 0.21% hits;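 active = OD600 absorbance below the run mean of sample wells minus 3.6 SD, in any replicate, cut at about 0.56 in these data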;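 note: stock transfer was 300 nL into about 60 µL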
FGF22 binding = binders of recombinant human FGF22 by thermal shift | Q9HCT0 | SYPRO orange fluorescence; percent of sucrose octasulfate shift, DMSO zero | calls only at 9.99 µM | 340,000 compounds, 1.5% hits;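 active = melting point raised past a set limit in the mean and every replicate; inconclusive = no clear call; three in four hits are not shown here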
Starred values were filed as active, the others as inactive; i = inactive; ? = inconclusive; . = not tested or not shown. The list is partial; rates above refer to the full screens.

Values run as follows: ALR inh | B2AR ag | LANA-H2B inh | E coli growth | UCH37 inh | FGF22 binding | HNF4A DNA FP
Cc1ccc(S(=O)(=O)/N=C(/Nc2c(C)cccc2C)c2ccccc2)cc1
→ -0.5 | 9.9 | -4.1 | 0.694 | 2.7 | i | -3.7
COc1ccccc1N1CCN(C(=O)CSc2ccc3c(C)cc(C)nc3n2)CC1
→ 15.2 | 4.6 | -11.5 | 0.755 | 2.7 | . | -2.4
CCOC(=O)CC(=O)CSc1nc2c(cc1C#N)CCCCCC2
→ -12.6 | -5.8 | -1.9 | 0.69 | -68.6 | . | 5.1
COc1ccc(S(=O)(=O)N(C)C[C@H]2Oc3c(NC(=O)C4CCCCC4)cccc3C(=O)N([C@H](C)CO)C[C@@H]2C)cc1
→ 1.7 | -6.4 | 3.3 | . | 4.5 | i | 3.0
Cc1ccc(N(CC(=O)NC(C)c2ccccc2)S(=O)(=O)c2c(C)noc2C)cc1 (stereo unspecified)
→ -0.7 | -2.3 | -3.9 | 0.682 | 5.6 | i | -2.4
CS(=O)(=O)Nc1ccccc1NS(C)(=O)=O
→ ? | -0.5 | 5.2 | 0.693 | 1.9 | i | 0.0
COc1ccc(Cl)cc1-c1nc(SCC(=O)N(C)C)n[nH]1
→ . | -3.8 | -5.4 | 0.698 | 4.8 | i | -7.5
CCn1c(C)nc2cc(C(=O)NNC(=S)Nc3ccc(F)cc3)ccc21
→ 65.2 | 4.1 | -7.3 | 0.677 | 6.8 | i | 2.6
CCOc1cc(C(=O)OCC(=O)Nc2ccc(F)cc2Cl)ccc1OCC(=O)N1CCOCC1
→ . | 5.7 | . | 0.677 | 2.1 | i | 4.3
CCOC(=O)c1cc2c(=O)n3ccccc3nc2n(CCCOC)c1=NC(=O)c1ccncc1
→ -5.7 | 0.1 | -2.5 | 0.701 | -0.7 | i | 3.4
CC1=C(C)CC(C(=O)NC2CCCC2)C(C(=O)O)C1 (stereo unspecified)
→ . | -1.2 | . | 0.732 | 5.4 | i | 1.5
C[C@@H](NC(=O)c1nc[nH]c1C(=O)NCc1ccc(CNC(=O)OC(C)(C)C)cc1)c1ccccc1
→ 3.8 | 5.9 | 0.5 | . | -1.7 | i | -0.8
COc1ccc(C2N=C(N)N=C(N)N2c2ccccc2OC)cc1OC (stereo unspecified)
→ -16.0 | 0.9 | 6.4 | 0.71 | 3.6 | . | 0.1
COc1ccc(S(=O)(=O)N2CCOCC2)cc1NC(=O)CC1CC2CCC1C2 (stereo unspecified)
→ . | -2.8 | -18.1 | 0.69 | -0.3 | i | -3.1
O=C(O)CSc1nnc(CNc2ccc(Cl)cc2)n1Cc1ccccc1
→ . | -5.5 | -0.1 | 0.735 | 3.2 | . | -1.0

Overlap with the part before: two compounds, then new ones.
Values run as follows: ALR inh | B2AR ag | LANA-H2B inh | E coli growth | UCH37 inh | FGF22 binding | HNF4A DNA FP
COc1ccc(S(=O)(=O)N2CCOCC2)cc1NC(=O)CC1CC2CCC1C2 (stereo unspecified)
→ . | -2.8 | -18.1 | 0.69 | -0.3 | i | -3.1
O=C(O)CSc1nnc(CNc2ccc(Cl)cc2)n1Cc1ccccc1
→ . | -5.5 | -0.1 | 0.735 | 3.2 | . | -1.0
O=C(OCCNC(=O)c1cc2ccccc2oc1=O)c1cccnc1
→ -5.8 | -3.5 | 49.7* | 0.661 | -13.3 | . | 2.2
O=C(Nc1ccccc1C(=O)O)c1ccc(Br)c(S(=O)(=O)NCc2ccccc2)c1
→ 48.0 | -2.4 | 2.2 | 0.714 | 6.8 | i | 2.2
COc1cccc(NC(=O)c2cc([N+](=O)[O-])ccc2NCc2cccnc2)c1
→ -8.1 | -1.0 | -5.7 | 0.691 | 3.9 | . | 2.3
O=C(O)c1ccc(-c2nnc(-c3cccc(Br)c3)o2)cc1
→ -0.6 | -0.8 | -2.9 | 0.663 | 2.4 | i | -2.1
Cc1cccc(N2CC3=C(C2=O)C(c2ccccc2)NC(=O)N3C)c1 (stereo unspecified)
→ . | -23.1 | 5.0 | 0.651 | -4.5 | . | 5.0
CCc1ccc(N/C(SC)=C(/C#N)C(N)=O)cc1
→ 5.8 | 9.0 | -4.2 | 0.727 | 8.0 | i | -2.5
Cc1ccc(N(C(C)C(=O)Nc2c(C)n(C)n(-c3ccccc3)c2=O)S(C)(=O)=O)cc1C (stereo unspecified)
→ -4.6 | -2.4 | -0.9 | 0.685 | 4.9 | i | 3.8
COc1ccc(NC(=O)CN(C)CC(=O)Nc2cccc(F)c2)cc1S(=O)(=O)N1CCCCC1
→ . | -6.7 | . | 0.648 | -2.5 | i | -1.0
Cc1cc(C)c(NC(=O)CSc2nc3[nH]ncc3c(=O)[nH]2)c(C)c1
→ -1.7 | -1.4 | 0.7 | 0.641 | 0.4 | . | 4.8
CCOc1ccccc1N(CC(=O)NC1CCCCC1)S(=O)(=O)c1ccccc1
→ . | 4.7 | 2.6 | 0.611 | 0.4 | i | -2.3
Cc1ccccc1Nc1nc2ccccc2s1
→ 5.4 | -2.2 | -0.1 | 0.653 | 4.2 | . | 1.4
CC(Oc1ccc(C#N)cc1)C(=O)Nc1ccc(-n2cnnn2)cc1 (stereo unspecified)
→ . | -0.9 | . | 0.707 | -0.6 | i | -1.3
COC(=O)c1cc(OC)c(OC)cc1NC(=O)CSc1ccc(C)cc1
→ -0.3 | 2.4 | -0.2 | 0.749 | -26.5 | . | -0.4
CC(NC(=O)c1ccc2c(=O)n3c(nc2c1)CCC3)c1ccc(S(N)(=O)=O)cc1 (stereo unspecified)
→ -1.0 | -3.5 | 0.4 | 0.709 | -5.0 | i | -3.3
Cc1c(C)n(CC(O)CNCCO)c2ccccc12 (stereo unspecified)
→ 46.3 | 2.8 | 5.2 | 0.69 | 3.9 | i | -0.2
O=C1c2ccccc2C2NC(=O)C3(CCCCC3)N12 (stereo unspecified)
→ -4.3 | -10.7 | -3.6 | 0.713 | 3.2 | . | -3.9
Cc1nc(NC(=O)CSc2nc(N)cc(N)n2)sc1C
→ 94.2* | -1.1 | 4.9 | 0.67 | 2.5 | i | 3.2
C=CCSC1=C(C#N)C(c2ccc(OCC)cc2)CC(=O)N1 (stereo unspecified)
→ -9.2 | -1.8 | 5.8 | 0.757 | 6.7 | i | -1.4
Cc1cc(C)c(S(=O)(=O)NCC(c2ccc3c(c2)OCO3)N2CCOCC2)c(C)c1 (stereo unspecified)
→ . | 2.4 | . | . | . | i | -3.1
Cc1sc2nc(N3CCOCC3)[nH]c(=O)c2c1-c1ccccc1
→ -2.9 | -11.4 | 0.0 | . | 5.2 | i | 0.1
Cc1cccc(N=C2NC(=O)/C(=C/c3cccn3C)S2)c1
→ 5.6 | -1.7 | 0.2 | 0.678 | 2.2 | i | 3.9
Cc1ccc(S(=O)(=O)N(C)C)cc1NC(=S)NNC(=O)C(N)=O
→ 24.3 | -2.5 | -2.3 | . | . | i | -3.6
COC(=O)c1sc(N2C(=O)C(=O)/C(=C(/O)c3ccccc3)C2c2ccco2)nc1C (stereo unspecified)
→ 90.5* | 5.7 | 6.1 | 0.707 | 10.3 | i | -3.2
O=C(O)/C=C1\CCCc2ccccc2C1O (stereo unspecified)
→ -4.1 | -4.9 | 5.6 | . | 3.5 | i | -1.8
O=C(/C=C\c1ccccc1[N+](=O)[O-])Nc1ccccc1
→ -6.2 | -1.2 | 0.8 | 0.689 | 4.1 | i | 1.0
CC(=O)c1ccc(NC(=O)c2ccc(COc3ccccc3[N+](=O)[O-])o2)cc1
→ -13.8 | 11.6 | 3.4 | 0.711 | 1.9 | i | 0.1
CSc1ccccc1NC(=O)Cn1c([N+](=O)[O-])cnc1C
→ -3.3 | -1.9 | -3.6 | 0.645 | 1.8 | i | 0.9
O=C(CN1CCN(c2ccccc2F)CC1)Nc1ccccc1F
→ -4.8 | 1.7 | -0.8 | 0.702 | 2.1 | . | 0.2
Cc1ccc(S(=O)(=O)N2CCOCC2)cc1NC(=O)Cn1ccsc1=N
→ 6.0 | -3.3 | -1.0 | 0.773 | -6.2 | . | 0.9
COc1ccc(C(=O)c2c[nH]cc2-c2ccccc2)cc1
→ -3.2 | -0.1 | 1.0 | 0.738 | 1.6 | i | 1.9
CCOC(=O)C1CCCN(CCC(=O)Nc2cccc(F)c2)C1 (stereo unspecified)
→ -9.6 | 6.2 | 0.1 | 0.702 | 4.5 | i | 2.5
O=C(c1ccc2c(=O)n3c(nc2c1)CCCCC3)N1CCN(c2ccccc2F)CC1
→ -21.1 | -12.7 | 0.1 | 0.673 | 2.7 | i | 4.8
CCOc1cc(N2CCOCC2)c(OCC)cc1NC(=O)COC(=O)c1ccccc1C
→ -20.8 | 6.3 | 3.9 | 0.698 | -0.3 | i | 4.6
COc1ccc(S(=O)(=O)N2CCN(C(=O)c3cc(C)oc3C)CC2)cc1
→ . | -0.9 | 1.2 | 0.627 | -0.2 | . | 1.6
O=C(CN1CCN(S(=O)(=O)c2ccc(F)cc2)CC1)Nc1ccc(Cl)cn1
→ 4.9 | -2.7 | 2.1 | 0.672 | -1.2 | i | 1.7
Cc1ccc(NN2C(=O)C=C(c3ccc(Cl)cc3)C2=O)cc1
→ -1.0 | 2.6 | 4.1 | . | . | . | 0.7
CC(C)C(c1nnnn1C1CCCCC1)N1CCCc2ccccc21 (stereo unspecified)
→ 26.7 | -2.8 | 3.3 | 0.72 | 2.1 | . | -0.7
COc1ccccc1C(=O)COC(=O)CNS(=O)(=O)c1ccc(C)c(C)c1
→ -0.5 | -9.0 | -1.0 | 0.652 | 0.6 | . | 1.5
CCOc1ccccc1OCCCCOc1ccccc1F
→ . | -0.1 | 5.9 | 0.73 | 3.4 | i | 0.5
CCOc1ccccc1NC(=O)CN(C)S(=O)(=O)c1ccc2[nH]c(=O)oc2c1
→ 3.2 | 16.1 | 5.0 | 0.667 | 2.6 | i | -4.3
Cn1cnc(S(=O)(=O)NCc2ccccc2)c1
→ . | -3.7 | . | 0.734 | -2.7 | . | 0.8
Cc1cc(F)c(F)c(C(=O)N2C(C)CCCC2C)c1Cl (stereo unspecified)
→ 0.3 | -1.6 | -0.6 | 0.668 | 5.0 | . | 1.9
Cc1ccc(C)c(NC(=O)CN2C(=O)CC(C)S(=O)(=O)c3ccccc32)c1 (stereo unspecified)
→ -4.0 | -4.7 | 3.8 | 0.601 | 0.2 | i | -8.3
COc1ccccc1NC(=O)C(=O)N1CCCC1
→ -1.3 | -5.8 | -3.4 | 0.686 | 2.8 | i | -2.1
O=C(COC(=O)c1cncc(Br)c1)Nc1ccc(N2CCCCC2)cc1
→ . | 1.7 | -1.3 | 0.63 | 0.7 | i | -1.3
CC(=O)c1ccc(NC(=O)C2CCCN(S(=O)(=O)c3c(C)[nH]c(=O)[nH]c3=O)C2)cc1 (stereo unspecified)
→ -0.8 | -2.6 | -1.5 | 0.72 | -0.5 | i | -2.2
O=C(CCCc1ccccc1)N1CCN(c2ccc([N+](=O)[O-])cc2)CC1
→ 0.4 | 2.8 | 0.9 | 0.772 | 7.0 | . | -1.3
Cc1ccc(S(=O)(=O)N2C[C@@H]3[C@H]4CC[C@H](C4)[C@@H]3[C@@H](C)[C@@H]2c2ccn([Si](C(C)C)(C(C)C)C(C)C)c2)cc1
→ . | -0.6 | . | 0.693 | 1.3 | i | 0.8
CC(=O)OCC(=O)NCC(=O)c1c[nH]c2ccccc12
→ . | 3.1 | -0.6 | 0.669 | -1.0 | . | -5.8
Cc1cc(OCCCN2CCN(Cc3ccccc3)CC2)ccc1[N+](=O)[O-]
→ . | -4.3 | 3.0 | 0.672 | 4.7 | i | 4.8

Bioassay records: PubChem, several laboratories
